Screening results from PubChem.
D2 potentiator: Beta-Arrestin HTS for Positive Allosteric Modulators of the Human D2 Dopamine Receptor: Potentiators; potentiation, % (test concentration not listed); DiscoveRx D2 beta-arrestin cells, luminescence, 90 min; 100% = 57 uM dopamine signal; actives 0.23% (n = 360,000); D(2) dopamine receptor (Homo sapiens), P14416; active = potentiation of 50% or more; inconclusive = 30% to 50%; inactive = 30% or less;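 further: compound concentration not given in the record; tested on top of an EC20 dose of dopamine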
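PathHunter D2 cells, attached overnight at 37 deg C, received compound in DMSO plus dopamine at EC20 (50 nM final) for 90 min at 37 deg C. Beta-arrestin recruitment was read as luminescence after 1 h with detection reagent at ambient temperature.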
CtBP-E1A blk: qHTS Assay for Inhibitors of the CtBP/E1A Interaction. activity change, % (no concentration beside the values). CtBP / adenovirus E1A interaction (AlphaScreen). AlphaScreen GST-E1A/His-CtBP binding, 1536-well; stronger effect = lower value; control for the full effect not named in the record. actives 0.49% (n = 340,000); in the data active means activity change below about -65%; inconclusive means about -30% to -65%; inactive means above about -30%; further: on the % scale 0 is the no-effect control and ±100 the full control effect; compound concentration not given in the record
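AlphaScreen with 125 nM GST-E1A and 125 nM His-CtBP (5X stocks) in Tris pH 8.0, 300 mM NaCl, BSA, Tween 20, TCEP. Compounds preincubated 2 h at 37 deg C, then glutathione donor/nickel acceptor beads added for 1 h at 37 deg C in dark.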
TRPV1 PAM: HTS Assay for Compounds that Act as Potentiators of the Vanilloid Receptor 1. TRPV1-expressing cells, Fluo-8 calcium influx, capsaicin EC20 potentiation; host cell line not named in the record; control for the full effect not named in the record. potentiation, % at 8.33 µM. actives 0.02% (n = 320,000); active means potentiation above 80%; inconclusive means 30% to 80%; inactive means below 30%; further: 0% is about no effect
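TRPV1-expressing cells were cultured overnight at 35.5C and loaded with Fluo-8 calcium dye for 40 to 90 min at room temperature. After a 10 s baseline, compound was added and calcium influx was read kinetically for 3 min (ex 480/em 520 nm).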
Six1-Eya2 blk: qHTS Assay for Inhibitors of the Six1/Eya2 Interaction; Homeobox protein SIX1 (Homo sapiens) + Protein phosphatase EYA2 (Homo sapiens), …; AlphaScreen GST-Six1/His-Eya2 binding, biochemical; stronger effect = lower value; control for the full effect not named in the record; activity change, % (test concentration not listed); actives 0.56% (n = 360,000); in the data active = activity change below about -65%; inconclusive = about -30% to -65%; inactive = above about -30%; further: on the % scale 0 is the no-effect control and ±100 the full control effect; compound concentration not given in the record
Target sequence (O00167 whole entry, looked up): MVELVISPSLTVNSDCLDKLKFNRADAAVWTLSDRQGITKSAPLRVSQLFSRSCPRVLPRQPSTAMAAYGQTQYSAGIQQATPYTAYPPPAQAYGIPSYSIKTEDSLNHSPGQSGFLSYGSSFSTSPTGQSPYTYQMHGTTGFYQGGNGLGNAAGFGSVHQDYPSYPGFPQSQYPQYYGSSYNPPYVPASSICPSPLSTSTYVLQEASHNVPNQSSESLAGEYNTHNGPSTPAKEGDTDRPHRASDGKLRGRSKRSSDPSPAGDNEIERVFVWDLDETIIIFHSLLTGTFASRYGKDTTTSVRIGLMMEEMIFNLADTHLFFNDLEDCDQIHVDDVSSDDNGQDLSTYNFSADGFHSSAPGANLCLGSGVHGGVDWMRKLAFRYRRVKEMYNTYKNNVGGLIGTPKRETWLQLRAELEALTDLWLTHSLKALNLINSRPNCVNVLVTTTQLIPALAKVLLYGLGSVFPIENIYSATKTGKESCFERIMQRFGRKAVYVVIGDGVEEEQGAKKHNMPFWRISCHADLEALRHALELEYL
Target sequence (Q15475 whole entry, looked up): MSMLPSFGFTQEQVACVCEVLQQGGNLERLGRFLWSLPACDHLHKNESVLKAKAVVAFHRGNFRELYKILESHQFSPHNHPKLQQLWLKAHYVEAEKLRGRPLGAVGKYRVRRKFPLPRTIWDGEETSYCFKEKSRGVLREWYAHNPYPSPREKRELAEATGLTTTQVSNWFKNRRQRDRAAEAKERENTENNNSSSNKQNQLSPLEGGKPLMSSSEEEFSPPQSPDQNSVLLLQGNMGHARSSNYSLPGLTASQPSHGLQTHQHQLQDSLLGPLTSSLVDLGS
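GST-Six1 + His-Eya2 (5X stock: 250/500 nM); Tris pH 8.0, 300 mM NaCl, 0.05% BSA, 0.02% Tween 20; GSH donor/Ni acceptor beads; 1 h 37 °C dark; AlphaScreen readout.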
TRPML1 ag: qHTS for Agonists of the Human Mucolipin Transient Receptor Potential 1 (TRPML1) | TRPML1-expressing cells, Ca2+ dye fluorescence, FDSS; host cell line not named in the record; reference of the full effect not given here | Mucolipin-1 (Homo sapiens), Q9GZU1 | AID 624414, 2012 | activation, % (no concentration beside the values) | actives 0.12% (n = 410,000); in the data active = activation above about 50%; inconclusive = about 30% to 50%; inactive = below about 30%; further: 0% is about no effect; the text of the record puts the active cut at 80%
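Tet-induced TRPML1-DL cells, 1,500 per well, cultured overnight, were loaded with a no-wash Ca2+ dye for 45–90 min. Calcium fluorescence was recorded on the FDSS for 110 s after compound addition, before the EC80 agonist (4 uM 54-4) was added.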
TRPML1 blocker: qHTS for Inhibitors of the Human Mucolipin Transient Receptor Potential 1 (TRPML1) | Mucolipin-1 (Homo sapiens), Q9GZU1 | activity change, negative = inhibition, % (test concentration not listed) | TRPML1-inducible cells, Ca2+ dye fluorescence, FDSS; stronger effect = lower value; inhibition of EC80 agonist-evoked calcium signal | actives 0.02% (n = 390,000); in the data active means activity change below about -50%; inconclusive means about -30% to -50%; inactive means above about -30%;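 further: stimulus is agonist 54-4 at its EC80 concentration; on the % scale 0 is the no-effect control and ±100 the full control effect; compound concentration not given in the record; the text of the record puts the active cut at -80%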
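Calcium fluorescence in TRPML1-DL cells induced overnight with Tet: a 110 s read after compound pin addition, then a 110 s antagonist read after challenge with 54-4 at 4 uM final (EC80).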
Active calls of the source: *; ? = inconclusive; · = not tested or not shown; & = joins results of further samples.

mol	D2 potentiator	CtBP-E1A blk	TRPV1 PAM	Six1-Eya2 blk	TRPML1 ag	TRPML1 blocker
O=C(Cc1cccc2ccccc12)NCCOc1ccccc1F	-12	-13	3	18	-0.6	-5
O=C(COc1ncnc2ccccc12)N1CCN(S(=O)(=O)c2ccccc2)CC1	11	-4	3	-13	0.5	32
Cc1ccc(NC(=O)C2c3ccccc3-c3ccccc32)cc1	-1	3	·	4	-1.0	·
CC(C)(C)c1ccc(/C=C2\Oc3c(ccc(O)c3CN3CCN(CCO)CC3)C2=O)cc1	-8	-7	-9	7	11	-8
O=C(CSc1nnc(COc2ccccc2)n1Cc1ccco1)NCc1ccco1	-14	-10	3	-16	-0.4	-13
O=C(NCCN1CCN(C(=O)c2ccc(F)cc2)CC1)c1ccc(F)cc1	-12	2	7	0	0.2	8
O=C(NNC(=O)C1CC1)c1ccc(F)cc1F	-4	-1	·	5	-0.5	2
CCCCCCn1c(SCCC)nc2c1c(=O)[nH]c(=O)n2C	-15	5	-9	5	0.1	2
O=C(CSc1nc2ccccc2c(=O)[nH]1)Nc1nc(-c2ccc(Br)cc2)cs1	15	9	-4	-3	-0.2	-3
Cn1c(Cn2c3ccccc3c3ccccc32)n[nH]c1=S	-26	·	-1	0	-1.2	-7
Cc1ccc(OCC(O)CNC2CCCC2)cc1C (stereo unspecified)	-9	3	-3	3	0.6	7
Cc1ccccc1Cn1c(C)c(C(=O)NCC(C)C)sc1=O	-1	1	·	1	-0.1	·
CC1(C)NC(=O)N(c2ccc([N+](=O)[O-])c(C(F)(F)F)c2)C1=O	3	6	-6	4	0.2	-7
CC(C)(C)OC(=O)N(CCc1ccccc1)Cc1ccccc1OCc1ccc(NC(=O)C2CCC2)cc1	-6	0	·	1	1.2	-20
CCCOC(=O)c1ccc(Oc2c(-c3ccc(O)cc3O)n[nH]c2C)cc1	16	13	-10	3	0.0	-7
Cc1ccc(CN(C)C(=O)c2ccc3c(c2)NC(=O)CS3)o1	-9	-15	10	-2	·	·
CC(=O)c1ccc(-n2c(CCC(=O)O)ccc2-c2cccs2)cc1	-19	8	-6	-5	-0.4&-0.6	18&19
CC(/C=C1\SC(=S)N(NC(=O)c2ccncc2)C1=O)=C\c1ccccc1	-6	-26	-11	-28	0.1	1
CCCCN(CC)CCNC(=O)c1cc2c(=O)n(CC)c3ccccc3c2s1	-19	-13	-5	-2	-0.1&-0.4	20&-1
COCc1nc2c([nH]1)c(=O)n(C)c(=O)n2CC(C)C	-1	-13	0	-2	-0.7	-3
Cc1cc(NC(=O)CN2CCC(C)CC2)no1	-53	·	13	7	2.5	-15
Cc1csc(=O)n1CCC(=O)OCC(=O)Nc1ccc(S(N)(=O)=O)cc1	1	7	6	-2	-0.1	8
CN1CCN(C(=O)CN(Cc2ccc(Cl)cc2)S(C)(=O)=O)CC1	-6	2	-7	0	-0.5	-11
COc1ccccc1CNC(=O)CSC1=NCCS1	5	4	-7	-5	-0.2	8
Cc1nc(SCC(=O)N2CCCC2=O)c2c(C)c(C)sc2n1	-20	-1	·	1	-0.3	-3
COc1ccc(S(=O)(=O)Nc2cccc(S(=O)(=O)NC3=NCCC3)c2)cc1[N+](=O)[O-]	-25	5	0	-4	0.0	-12
CC(C)C(NC(=O)c1ccc2c(c1)OCO2)C(=O)N/N=C\c1ccco1 (stereo unspecified)	-5	7	16	5	-0.3	2
C[C@@H]1CN([C@H](C)CO)C(=O)CCCn2nncc2CO[C@@H]1CN(C)S(C)(=O)=O	4	6	·	8	-0.6	10
COc1nc(N2CCOCC2)nc(C)c1[N+](=O)[O-]	-14	1	-5	2	-0.2	-18
CCN(CC)C(=O)CN(c1cc(Cl)ccc1OC)S(C)(=O)=O	-11	-15	-33	-5	-0.6	-1
COc1ccccc1N1CCN(C2=CC(=O)CCC2)CC1	-20	2	-5	20	1.1	20
CCOC(=O)c1nc(C)n(-c2cc(Cl)ccc2Cl)n1	-9	5	2	-2	-1.3	17
CC(=O)Nc1ccc(/C(C)=N/NC(=O)C2CC2c2ccccc2)cc1 (stereo unspecified)	-16	14	17	0	-0.7	-15
CC(C)CN(C(=O)COC(=O)CCC(=O)c1ccc(F)cc1)c1c(N)n(Cc2ccccc2)c(=O)[nH]c1=O	4	7	8	4	0.5	0
O=C(NNc1cccc(Cl)n1)c1c(F)cccc1F	-7	-8	17	1	-0.3	4
CCCCSc1nnc([C@H](C)NC(=O)OC(C)(C)C)o1	-4	11	?	4	-0.3	4
CCOP(=O)(OCC)/C(C#N)=C/c1cc(OC)ccc1OC	-18	·	-15	8	-0.2	-5
COCCN1C(=O)C(=O)/C(=C(/O)c2cccc(OC)c2)C1c1ccc(C)o1 (stereo unspecified)	-1	-3	23	-2	1.5	1
CCN(CC)S(=O)(=O)c1ccc(/C=C/C(=O)OCC(=O)NCc2ccco2)cc1	14	-1	·	-6	-0.3	-1
Cc1ccc(C(=O)N2CCN(c3ccc(NC(=O)c4cccs4)cc3)CC2)cc1	-8	-12	-3	-4	1.6	-7
COc1ccc(C2=CC(=O)C[C@H](CN3C(=O)c4ccccc4C3=O)N(C(=O)OC(C)(C)C)O2)cc1	-2	-5	·	-7	2.4	5
CC(=O)c1nnn(-c2ccc(Cl)cc2C#N)c1C	-11	5	-12	-3	-0.1	19
O=C/C=C/c1c(-c2ccccc2)cc2oc3ccccc3cc1-2	-16	-4	-13	27	0.2	-13
CCCCCc1ccc(-c2ccc(OCC)cc2)nc1	9	-9	2	39	-0.6	3
O=[n+]1c2c(n([O-])c3ccccc31)CCCC2	-5	2	19	2	0.4	-5

An excerpt from above with just TRPML1 ag, Six1-Eya2 blk and CtBP-E1A blk:
structure,TRPML1 ag,Six1-Eya2 blk,CtBP-E1A blk
O=C(NNc1cccc(Cl)n1)c1c(F)cccc1F,-0.3,1,-8
Cc1ccc(C(=O)N2CCN(c3ccc(NC(=O)c4cccs4)cc3)CC2)cc1,1.6,-4,-12

(cont.)
mol	D2 potentiator	CtBP-E1A blk	TRPV1 PAM	Six1-Eya2 blk	TRPML1 ag	TRPML1 blocker
Cc1cccc(NC(=O)CSCC(=O)N(CCC(C)C)c2c(N)n(Cc3ccccc3)c(=O)[nH]c2=O)c1	-69	6	18	-9	1.0	-1
Cc1cccc(OC(=O)c2cn(C)nc2C(F)(F)F)c1C	-2	8	8	0	-0.2	29
CN1CCN(S(=O)(=O)c2cccc(C(=O)O)c2)CC1	-2	10	5	0	-0.5	12
COC(=O)Cc1[nH]nc2c1C1(C(=O)N(Cc3ccccc3)c3ccccc31)C(C#N)=C(N)O2 (stereo unspecified)	16	1	11	4	-0.4	-20
C/C=C1\COC(C(=O)NCCCN2CCCC2=O)(C(F)(F)F)C=C1C=C(C)C (stereo unspecified)	-10	1	·	1	1.4&0.3	29&-16
CN(C)c1ccc(C(=S)N2CCCC2)cc1Br	-8	5	-6	5	-1.5	2
Cc1ccc(C2(C)NC(=O)N(CC(=O)NCCC3=CCCCC3)C2=O)cc1 (stereo unspecified)	2	6	-4	2	2.2	0
COc1ccc(C)cc1Nc1n[n+](-c2ccccc2)c(-c2cc([N+](=O)[O-])cc(OC)c2O)s1	-7	3	-9	-7	0.9	-10
Cn1cc(CN2CCCC(C(=O)Nc3cccc(-n4cccn4)c3)C2)cn1 (stereo unspecified)	-39	1	-8	0	-0.9	-4
N#Cc1c(-c2ccc(F)cc2)c2c([nH]c1=O)-c1ccccc1OC2	-1	13	5	9	-0.1	-7
Cc1ccc2[nH]c(C(=O)NCCN3CCCC3)cc2c1	-11	-15	4	2	-0.3	-12
CC(C)(C)C(=O)N1CCN(c2ccc(NC(=O)c3ccc([N+](=O)[O-])o3)cc2)CC1	4	-4	0	-6	0.3	-1
CN(c1ccccc1)S(=O)(=O)c1cccc(NC(=O)CCNC(=O)c2ccco2)c1	-12	-2	·	-3	-0.2	2
O=C(O)C1CCCCN1S(=O)(=O)c1ccc(Cl)s1 (stereo unspecified)	-11	3	-8	-3	-0.3	5
CCCCCOc1ccc(C2NC(=O)NC2=O)cc1 (stereo unspecified)	-5	2	-5	-3	-0.9	30
CCOC(=O)C1(CCOc2ccccc2)CCN(CCCn2cccn2)CC1	-13	9	-1	-7	-0.1	-12
COC(=O)c1ccc(S(=O)(=O)N2CCc3ccccc3C2)cc1	10	·	18	-1	·	·
CC(=O)Nc1ccc(NC(=O)CSc2nnnn2-c2ccccc2F)cc1	1	11	-8	0	-0.3	13
Cc1ccc(C2CCN(C(=O)Nc3ccc(F)cc3)C2)cc1 (stereo unspecified)	-12	1	1	8	-0.6	14
O=C(CN1CCN(c2ccccn2)CC1)N1c2ccccc2Sc2ccc(C(F)(F)F)cc21	-39	-18	20	-15	0.8	13
O=C(OCc1cc(=O)n2c(n1)sc1ccccc12)c1ccc(O)cc1O	-7	-10	0	-3	0.6	14
CCN(CC)Cc1cc(CCNC(=O)c2ccc(Cl)cc2)ccc1O	-19	22	-5	14	-0.2	-7
CN(CC(=O)Nc1ccc(C(N)=O)cc1)CC(=O)Nc1ccccc1Cl	-13	3	16	1	-0.3	11
CCOC(=O)CSc1n[nH]c(NC(=O)NC(C)C)n1	-9	·	5	7	0.3	9
CC(C)(C)n1c(O)c2n(c1=O)Cc1ccccc1N=C2c1ccccc1	-3	-13	·	-21	-0.6	·
O=c1[nH]c2cc3c(cc2cc1CN(Cc1cccnc1)Cc1nnnn1Cc1ccco1)OCCO3	2	-1	4	-19	2.1	1
Cc1ccc(S(=O)(=O)N(CC(=O)NCc2cccnc2)c2ccc(F)cc2)cc1	-2	-12	-1	1	0.2	2
COCc1cc(C)nc(SCC(=O)N2CCC(C)CC2)c1C#N	0	-10	17	-4	-0.2	-9
Cc1noc(C)c1NC(=O)N(C)C[C@H]1Oc2c(NC(=O)NC(C)C)cccc2C(=O)N([C@H](C)CO)C[C@@H]1C	-3	6	·	-1	-0.1	-3
COc1ccccc1NC(=O)N1CCCC1	-5	2	4	1	0.0	3
COc1cccc(NC=C2C(=O)OC3(CCCCC3)OC2=O)c1	4	9	-8	8	-0.1	4
CCOCCCNC(=O)c1ccc2nc(-c3ccc(OC)c(OC)c3)c(-c3ccc(OC)c(OC)c3)nc2c1	-4	-2	1	12	-1.1	-2
O=C(Nc1ccncc1)c1ccc(NS(=O)(=O)c2ccc3[nH]c(=O)[nH]c3c2)cc1	-16	0	10	-5	0.0	3

Not a hit list. Share with any hit: about 0.95%.
